Bioassay records deposited in PubChem by several laboratories.
CBX7 inh = inhibitors of human CBX7 binding to H3K27me3 peptide. normalised signal (fraction of DMSO) (concentration not given with the values). AlphaScreen His6-CBX7 / biotin-H3K27me3 peptide binding; active compounds read low. O95931. 66,000 compounds, 1.1% hits; in the data active = normalised signal below about 0.5;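 also: 100 nL library stock added to about 20 µL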
Target sequence (O95931 whole entry, looked up): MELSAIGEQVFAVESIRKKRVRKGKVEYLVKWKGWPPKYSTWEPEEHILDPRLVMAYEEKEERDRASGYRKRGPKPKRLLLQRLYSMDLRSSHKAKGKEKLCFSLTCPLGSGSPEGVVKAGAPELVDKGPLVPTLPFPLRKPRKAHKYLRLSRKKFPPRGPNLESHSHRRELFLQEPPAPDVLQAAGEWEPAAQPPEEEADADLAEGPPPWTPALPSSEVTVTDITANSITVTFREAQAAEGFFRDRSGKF
CBX7 inh z-score = recorded beside CBX7 inh, whose call it bears; z-score; measured here: z-score of CBX7 signal; some inactives read as strong as hits; reference of the scale not given here;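 same signal on another scale; lower means less binding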
The depositor's hits bear a star; & = joins results of further samples. These rows are one share of the data. The share of hits here may be higher or lower than overall.

compound,CBX7 inh,CBX7 inh z-score
Cc1ccc(SCc2nc3scc(C)n3c2Br)cc1,1,-0.1
O=C(CCc1nc(-c2ccccc2F)no1)NCC1CCCO1 (configuration not stated),0.92,-1.3
Cn1c2ccccc2c2c(C(=O)NC3CCCCCC3)cn(C3CCCCC3)c(=O)c21,0.97,-0.65
O=C(C1CC1)N1CCc2cc(S(=O)(=O)NCCN3CCOCC3)ccc21,0.97,-0.8
Cc1ccc2c(c1)C(c1ccccc1)N(C(=O)c1ccccc1)CC(=O)N2 (configuration not stated),0.96,-0.48
CN(C)c1oc(-c2ccc(Cl)cc2)nc1S(=O)(=O)c1ccc(Cl)cc1,0.98,-0.37
CN1CCN(C(=O)C2CCN(S(=O)(=O)c3cnc[nH]3)CC2)CC1,1,0.15
Cc1nccn1CCC(=O)Nc1ccc(Cl)cc1,0.99,-0.27
Cc1nn(CCC(=O)O)c2c1C1C(C2)C1(C)C (configuration not stated),1,0.01
Cc1ccc2n1CCN(c1nc(-c3ccc(Br)cc3)cs1)C2C (configuration not stated),1.1&1,1.5&0.0095
COc1ccc(-n2nnc3c(=O)n(CC(=O)N4CCC(C)CC4)cnc32)cc1,1.1,1.2
COCCNC(=O)CN1CCN(Cc2ccccc2C)C1=O,1.1,2.5
COc1ccc(OC)c(NC(=O)CSc2nnc(CNC(=O)c3ccc(OC)c(OC)c3)o2)c1,0.81,-3.1
COc1ccc(C2CC(C(F)(F)F)n3nc(C(=O)Nc4cc(Cl)ccc4O)cc3N2)cc1 (configuration not stated),0.94,-1.1
O=S(=O)(c1ccccc1)c1nc(COc2ccc(Cl)cc2Cl)oc1NCc1ccccc1,0.82,-0.77
CCc1ccc(-c2csc(Nc3ncccn3)n2)cc1,1.1,1.3
CCOc1ccc(CCNC(=O)CCc2cn(C)c3ccccc23)cc1OCC,0.97,-1.2
Cc1ccc2oc(-c3ccc(Cl)c(NC(=O)c4ccc(OC(C)C)cc4)c3)nc2c1,1.1,0.6
CCC(=O)N1CCc2cc(S(=O)(=O)NCCc3ccc(OC)c(OC)c3)ccc21,1,0.11
O=S(=O)(c1ccc(Br)cc1)c1cccc(S(=O)(=O)N2CCOCC2)c1,1,0.51
CCOc1ccc(C2(c3cccc(F)c3)CCCCC2)cc1,1.2,7.2
O=C(CC1Oc2ccc(Cl)cc2NC1=O)NCc1ccc2c(c1)OCO2 (configuration not stated),0.99,-0.6
Cc1ccc(-c2nc(NC(=O)CCc3ccccc3)sc2C)cc1,0.96,-0.96
Cc1ccc(NC(=O)Cn2c(-c3ccccc3Cl)nc3sc(C)c(C)c3c2=O)cc1F,1,0.46
Cc1ccc(-c2nc(C(=O)NCC3CCCO3)c(C)o2)cc1 (configuration not stated),1.1,1.6
COc1cc(OC)cc(C(=O)Nc2cccc(-c3nc4ccccc4s3)c2)c1,0.99,-0.43
CCOC(=O)Cn1c(=O)c(-c2ccccc2NC)nc2ccccc21,0.8,-2.5
Cn1c2ccccc2c2c(C(=O)N3CCN(c4ccccc4F)CC3)cn(C3CCCCC3)c(=O)c21,0.67,-8.2
Cc1cccc(CCNC(=O)Cn2ncc3c2-c2ccccc2OC3)c1,0.95,-1.3
CCOC(=O)c1cnc2c(OC)cccc2c1NC1CCCCC1,0.69,-5.3
COc1ccc(OC)c(NC(=O)CCC(=O)Nc2ccc3nc(N4CCCCC4)cc(C)c3c2)c1,1.1,4.9
Cc1ccc2ncnc(Nc3cccc(C(F)(F)F)c3)c2c1,1.1,2.5
O=C(Cn1nc(Cc2ccncc2)c2ccccc2c1=O)NCCC1=CCCCC1,1,0.37
Cc1ccc(CCNC(=O)c2cc3c(s2)-c2ccccc2OC3)cc1,1,0.1
CCOC(=O)COc1ccc(Oc2nc(C)cc(OC)n2)nn1,1.1,0.68
COc1ccc2nc(C)cc(Nc3ccc(OCc4ccccc4Cl)cc3)c2c1,0.8,-2.5
O=C1CC(N2CCCCCCC2)C(=O)N1c1ccc(Br)cc1 (configuration not stated),1,0.12
Cc1ccnc(NC(=O)C(Cc2ccccc2)NS(=O)(=O)c2ccc3c(c2)CCC(=O)N3)c1 (configuration not stated),1,0.087
Cc1cc(C)cc(NC(=O)C2=CCN(S(=O)(=O)c3ccccc3)CC2)c1,1.1,1.5
CC(=O)Nc1nonc1-c1nc2ccccc2n1Cc1c(F)cccc1Cl,0.93,-1.4
COc1ccc(NC(=O)CCc2nc(-c3cccs3)no2)c(OC)c1,1,0.11
COc1ccc(OCCCn2c(C3CC(=O)N(c4cc(C)cc(C)c4)C3)nc3ccccc32)cc1 (configuration not stated),0.77,-1.5
Cc1ccc(-c2noc(CC3CCCCC3)n2)cc1,1.5,15
CSc1ccc(-c2nc(SCC(=O)Nc3nccs3)c(-c3ccccc3)[nH]2)cc1,0.93,-1.2
COc1cccc(CNC(=O)CCNS(=O)(=O)c2ccc3c(c2)CCN3C(C)=O)c1,1,0.87
CCCCn1c(C(C)NC(=O)CCC)nc2ccccc21 (configuration not stated),1.2,1.7
O=C(CSc1nccn1-c1ccc(F)cc1)NCc1ccc(F)cc1,0.86,-0.5
CCOC(=O)c1cnc2cc(C(F)(F)F)ccc2c1Nc1ccc(C)c(F)c1,1.2,2.9
C=CCSc1nnc(Cc2cc(=O)[nH]c(=O)[nH]2)n1-c1ccc(Cl)cc1,1,0.48
COc1ccc(NC(=O)c2cn(-c3ccccc3)nc2-c2ccc(Br)cc2)cc1,0.99,-0.24

(further entries)
compound,CBX7 inh,CBX7 inh z-score
COc1ccc(-c2nc(-c3ccccc3)c(-c3ccccc3)[nH]2)cc1O,0.92,-2.1
Cc1cc(N2CCC(C)CC2)nc2ccc(NC(=O)c3cncc(Br)c3)cc12,0.9,-1
Cc1onc(-c2ccccc2)c1C(=O)Nc1cccc(Cl)c1,1,0.77
CC(=O)Nc1ccc(Nc2nc(-c3c(C)nc4sccn34)cs2)cc1,0.67,-0.39
CCCN1CCN(C(=O)C2CCCN(c3nc4ccc(OCC)cc4s3)C2)CC1 (configuration not stated),0.29*,-13*
CCOc1ccccc1NC(=O)c1sc2ncn(CC(=O)Nc3ccccc3OC)c(=O)c2c1C,1.2,2.4
O=C(CCc1nc2sc3c(c2c(=O)[nH]1)CCCC3)NCCc1ccc(Cl)cc1,1,0.15
Cc1nn(Cc2ccc(Cl)c(Cl)c2)c(C)c1NC(=O)c1cc(-c2ccco2)on1,0.97,-0.74
CCc1c(C)nc2c(-c3ccc(Cl)cc3)c[nH]n2c1=O,0.91,-1.6
C=CCn1c(SCc2nc3ccccc3[nH]2)nnc1-c1ccco1,1,0.54
COc1ccc(S(=O)(=O)NCCc2cc3ccc(C)cc3[nH]c2=O)cc1,1.5,3.5
COc1ccc2nc(NS(=O)(=O)c3ccc(Cl)cc3)c(Nc3ccc(Cl)cc3)nc2c1,1.2,4.1
CN(CCCNC(=O)CN1C(=O)COc2ccc(S(=O)(=O)N3CCOCC3)cc21)c1ccccc1,0.98,-0.43
CCc1ccc(NC(=O)CCc2nnc3ccc(N4CCOCC4)nn23)cc1,0.97,-0.51
Cc1nnc(Sc2nc3ccccc3s2)c2ccccc12,0.99,-0.2
Cc1ccccc1Nc1nc(C(F)(F)F)c(-c2cccc3ccccc23)s1,1.1,1.4
CNC(=O)Nc1cc(C(C)(C)C)no1,1.1,1.4
CCN(c1ccc(F)cc1)S(=O)(=O)c1ccc2[nH]cc(C(=O)NCC(OC)OC)c(=O)c2c1,1,0.42
CC1CCN(S(=O)(=O)c2ccc3ncn(CC(=O)NC4CCCCC4)c(=O)c3c2)CC1,1.2,1.8
COc1ccc(CNc2cc(C)nc3c(-c4ccccc4OC)c(C)nn23)cc1,1,0.18
Cc1cccc(OCc2nc(-c3ccc(Br)cc3)no2)c1C,1.3,3.5
CCc1ccc(OCC(=O)Nc2ccc3oc(-c4ccncc4)nc3c2)cc1,0.93,-0.78
Cn1c(C(=O)Nc2ccc(F)cc2)cc2sc(Cl)cc21,0.95,-1.8
COc1cccc(-c2nn(C)c3sc(C(=O)N4CCN(c5cccc(C)c5)C(C)C4)cc23)c1 (configuration not stated),0.84,-4.5
COc1ccc(CNC(=O)c2cc3sccc3n2C)cc1,0.87,-0.5
O=C(Nc1cccc(F)c1)c1cccc2c1C(=O)N(Cc1cccnc1)C2,0.67,-2.7
COc1ccccc1Nc1cc(C)nc2c(OC)cccc12,0.77,-0.82
O=C(c1cnn2c(C(F)(F)F)cc(-c3ccc4c(c3)OCO4)nc12)N1CCN(C(c2ccccc2)c2ccccc2)CC1,0.99,-0.093
Cc1csc(NC(=O)CCc2c(C)nc3cc(-c4cccc(F)c4)nn3c2C)n1,1,-0.0097
O=C(Nc1nc(-c2ccncc2)cs1)c1ccc(S(=O)(=O)N2CCOCC2)cc1,0.97,-0.7
Cc1nc2ccc(S(=O)(=O)NC(C(=O)NCc3ccccc3)C(C)C)cc2s1 (configuration not stated),1.1,2
Cc1ccc2c(c1)N(CC(=O)NC(C)c1ccccc1)C(=O)CO2 (configuration not stated),0.96,-1.9
Cc1ccccc1-c1nc(CN2CCC(C(=O)NCCc3ccccc3)CC2)c(C)o1,0.85,-2.4
CCOC(=O)N1CCN(c2cc(=O)n(-c3ccccc3C)c(=O)[nH]2)CC1,1.1,1.2
CN(Cc1ccccc1)C(=O)c1ccc2c(c1)N(Cc1ccccc1Cl)C(=O)c1ccccc1S2,0.73,-7.1
CCOC(=O)c1cnc2c(C)c(Cl)ccc2c1Nc1ccc(C(=O)O)cc1,0.97,-0.085
O=c1[nH]c2ccccc2nc1Cc1c(F)cccc1Cl,0.99,-0.35
COc1ccc(C(=O)c2oc3ccccc3c2NC(=O)COc2ccccc2)cc1,1,-0.01
CCn1cc(C(=O)Nc2ccc(OC)c(OC)c2)c2cc(OC)c(OC)cc2c1=O,1,0.023
CCOc1ccc2nc(N3CCCC(C(=O)NCCc4ccc(S(N)(=O)=O)cc4)C3)sc2c1 (configuration not stated),0.95,-1.2

Overlap with the part before: 5 compounds, then new ones.
compound,CBX7 inh,CBX7 inh z-score
CCOC(=O)c1cnc2c(C)c(Cl)ccc2c1Nc1ccc(C(=O)O)cc1,0.97,-0.085
O=c1[nH]c2ccccc2nc1Cc1c(F)cccc1Cl,0.99,-0.35
COc1ccc(C(=O)c2oc3ccccc3c2NC(=O)COc2ccccc2)cc1,1,-0.01
CCn1cc(C(=O)Nc2ccc(OC)c(OC)c2)c2cc(OC)c(OC)cc2c1=O,1,0.023
CCOc1ccc2nc(N3CCCC(C(=O)NCCc4ccc(S(N)(=O)=O)cc4)C3)sc2c1 (configuration not stated),0.95,-1.2
Cn1c(SCc2nc3ccccc3n2CC(N)=O)nc2ccccc21,1,1.1
CCOC(=O)c1cc(-c2ccccc2)n(-c2cccc(C(=O)Nc3cc(C)cc(C)c3)c2)c1C,0.9,-1.8
CCc1ccc(-c2nc(CN3CCCC(C(=O)NCCc4ccc(Cl)cc4)C3)c(C)o2)cc1 (configuration not stated),0.98,-0.42
Cc1nc2c(-c3ccccc3)c(C)nn2c(C)c1CCC(=O)Nc1ccccc1F,1.1,2.2
CS(=O)(=O)CC[C@@H](C(=O)Nc1cc(F)ccc1F)N1Cc2ccccc2C1=O,0.92,-0.53
Cc1ccc(Cn2c(=O)c3cccnc3n(Cc3ccc(F)cc3)c2=O)cc1,1.1,1.6
COc1ccc(OC)c(NC(=O)c2cccnc2Oc2ccc(Cl)cc2)c1,1&1.1,0.36&0.88
Cc1ncc(NS(=O)(=O)c2ccc(NC(=O)NC3CCCCC3)cc2)c(C)n1,1,0.08
O=C(NC1CCCC1)c1ccc2c(c1)N(Cc1ccc(F)cc1)C(=O)c1ccccc1S2,1,0.76
CCc1nc2ccccc2c(NC(=O)CN2CCCCC2)c1C,1.1,0.11

In the list so far, three contain a furan ring, fused or not:
compound,CBX7 inh,CBX7 inh z-score
Cc1nn(Cc2ccc(Cl)c(Cl)c2)c(C)c1NC(=O)c1cc(-c2ccco2)on1,0.97,-0.74
C=CCn1c(SCc2nc3ccccc3[nH]2)nnc1-c1ccco1,1,0.54
COc1ccc(C(=O)c2oc3ccccc3c2NC(=O)COc2ccccc2)cc1,1,-0.01

The results go on.
compound,CBX7 inh,CBX7 inh z-score
Cc1c(C(=O)Nc2cccc(Cl)c2)sc2ncn(CC(=O)N3CCCCC3C)c(=O)c12 (configuration not stated),1,0.78
CCCNC(=O)Cn1cnc2sc(C(=O)Nc3ccc(OC)cc3OC)c(C)c2c1=O,1.1,0.93
CC1(C(=O)NC2CCCCCCC2)CCC(=O)N1Cc1cccs1 (configuration not stated),1.2,1.8
NS(=O)(=O)c1ccc(NC(=O)c2cc(-c3ccc4c(c3)OCO4)nc3ccccc23)cc1,1,0.89
COc1cccc(OCc2nc(-c3ccccn3)no2)c1,0.98,-0.026
Cc1nc(SCC(=O)c2ccc3c(c2)OCCO3)c2c3c(sc2n1)CCC3,1,0.042
